KCNQ2 pot: KCNQ2 (rat) channel potentiation; B-score at 10 µM; O88943; AID 2239; 310,000 tested, 0.54% active; CHO-K1 KCNQ2, FluxOR thallium flux fluorescence; hits give high values;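 active means fluorescence ratio B-score at least 3 SD of library B-scores, with initial fluorescence B-score within 3 SD, cut at about 5.3 in these data; same plate scores as AID 2156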;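 further: B-score of peak minus minimum over baseline fluorescence ratio after K+ and Tl+ stimulus; positive B-score means potentiation of KCNQ2 with more thallium influx and brighter signal; only the inactives scoring about 0 or higher are listed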
Target sequence (O88943 whole entry, looked up): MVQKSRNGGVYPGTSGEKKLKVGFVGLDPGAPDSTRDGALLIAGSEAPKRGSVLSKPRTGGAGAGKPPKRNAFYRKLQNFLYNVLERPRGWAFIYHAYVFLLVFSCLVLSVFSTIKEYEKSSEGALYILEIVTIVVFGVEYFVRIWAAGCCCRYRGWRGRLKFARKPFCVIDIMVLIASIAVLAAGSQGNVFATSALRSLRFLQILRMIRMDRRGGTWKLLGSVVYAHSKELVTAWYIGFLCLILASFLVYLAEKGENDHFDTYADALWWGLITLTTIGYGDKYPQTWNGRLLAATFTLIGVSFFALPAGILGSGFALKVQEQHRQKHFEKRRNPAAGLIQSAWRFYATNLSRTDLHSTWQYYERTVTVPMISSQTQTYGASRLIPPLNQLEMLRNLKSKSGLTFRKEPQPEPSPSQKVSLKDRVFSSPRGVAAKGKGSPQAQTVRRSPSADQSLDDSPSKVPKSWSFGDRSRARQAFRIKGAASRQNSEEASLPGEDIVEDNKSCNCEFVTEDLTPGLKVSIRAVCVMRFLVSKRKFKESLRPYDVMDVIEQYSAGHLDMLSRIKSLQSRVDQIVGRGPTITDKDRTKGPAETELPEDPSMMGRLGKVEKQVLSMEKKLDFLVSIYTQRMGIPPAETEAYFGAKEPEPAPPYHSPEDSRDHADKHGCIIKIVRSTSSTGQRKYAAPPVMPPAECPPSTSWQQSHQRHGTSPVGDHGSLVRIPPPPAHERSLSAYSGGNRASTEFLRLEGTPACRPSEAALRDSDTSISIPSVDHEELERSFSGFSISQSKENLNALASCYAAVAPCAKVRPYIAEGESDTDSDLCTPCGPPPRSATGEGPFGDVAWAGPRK
KCNQ2 pot baseline: further read-out of KCNQ2 pot, marked with its call; B-score; compound at 10 µM; measured here: initial fluorescence intensity artifact check;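 brightness before thallium and not channel activity; 0 = typical well and far values either way flag optical interference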
Numbers without * were called inactive. An excerpt; rates above refer to the full screens.

SMILES | KCNQ2 pot | KCNQ2 pot baseline
CCc1c(C)sc(NC(=S)Nc2nc(C)cc(C)n2)c1C(=O)OC | 2 | 1.6
CSc1cccc(NC(=O)c2ccco2)c1 | 0.17 | -0.13
CCn1c(=S)[nH]c2ccccc21 | 1.2 | 0.15
Cc1ccc(Nc2cc(C)nc3ccc(C)cc23)cc1 | 0.17 | -1.7
Clc1ccc2[nH]cc(-c3nnnn3-c3ccc4ccccc4c3)c2c1 | 0.01 | 1.3
Cc1ccc(NC(=O)/C(=C\c2cccs2)NC(=O)c2ccccc2)cc1 | 0.75 | 0.76
O=C(c1cccc(S(=O)(=O)Nc2cccc(C(F)(F)F)c2)c1)N1CCCCC1 | 0.7 | -1.4
Cc1cc(=S)[nH]c(=S)[nH]1 | 0.81 | 0.24
Cc1cc(/C=C(/C#N)c2nc3ccccc3[nH]2)c(C)n1-c1ccccc1C(=O)O | 0.88 | 0.07
CC(=O)c1c(C)[nH]c(-c2ccccc2)nc1=S | 6* | -1*
CN1N=C(C(=O)NC2CCCc3c2cnn3-c2ccc(F)cc2F)CCC1=O (configuration not stated) | 0.88 | -1.2
COC(=O)c1c(C)[nH]c(C(=O)/C=C/c2ccc(C)cc2)c1C | 1.4 | -1.6
COC(=O)COc1ccc2c(c1)O/C(=C\c1ccco1)C2=O | 0.02 | 0.05
CC(C)(C)NC(=O)c1cccc2c1-c1ccccc1C2=O | 0.01 | 1.7
CC(C)C(=O)Nc1nnc(SCC(=O)N2C(C)CCCC2C)s1 (configuration not stated) | 0.46 | -0.17

4 of the compounds above, with two lines to a compound:
Value order: KCNQ2 pot	KCNQ2 pot baseline
Cc1ccc(Nc2cc(C)nc3ccc(C)cc23)cc1
    0.17	-1.7
Cc1cc(/C=C(/C#N)c2nc3ccccc3[nH]2)c(C)n1-c1ccccc1C(=O)O
    0.88	0.07
Cc1ccc(NC(=O)/C(=C\c2cccs2)NC(=O)c2ccccc2)cc1
    0.75	0.76
Clc1ccc2[nH]cc(-c3nnnn3-c3ccc4ccccc4c3)c2c1
    0.01	1.3

Remaining list, next part.
SMILES | KCNQ2 pot | KCNQ2 pot baseline
O=C(CN1C(=O)c2cccc3cccc(c23)C1=O)N1CCCCCC1 | 1.8 | 0.18
CC(C)Oc1ccc2c3c(c(=O)oc2c1)CCC3 | 0.49 | 0.17
O=C(N/N=C/c1ccoc1)c1cc(O)cc(O)c1 | 0.09 | 0.37
O=C(N/N=C/c1ccc(COc2ccc(Br)cc2)o1)c1ccc2c(c1)OCO2 | 5.7* | 0.06*
COc1ccc(OC)c(NC(=O)C2C3CCC(C3=C(C)C)C2C(=O)O)c1 (configuration not stated) | 0.23 | 1.1
O=C(Nc1ccccc1)c1ccc(-n2cnnn2)cc1 | 0.52 | -0.13
CC(=O)/C(=C\Nc1ccc(OCc2ccccc2)cc1)c1ccccc1 | 0.08 | 0.35
Cc1cccc(NC(=O)CSc2nncn2-c2ccccn2)c1 | 0.62 | -0.86
CCc1cc2c(=O)[nH]c(Cc3ccccc3)nc2s1 | 0.6 | -0.6
COc1cccc(N2C(=O)c3cccnc3C2O)c1 (configuration not stated) | 1.1 | -0.48
COc1nc(OC)nc(N2CCC(NC(=O)C(Cc3ccc(C(C)C)cc3)NC(C)=O)CC2)n1 (configuration not stated) | 0.58 | 0.78
Cc1cc(/C=N/n2cnnc2)c(C)n1-c1ccc(OCc2ccc(Cl)cc2)cc1 | 1.1 | 0.91
O=C(NCc1ccc(Cl)cc1)C1CCC(=O)N(C2CC2)C1 (configuration not stated) | 0.78 | 1
CCOC(=O)N1CCN(C(=O)C(C)N(c2ccc(Oc3ccccc3)cc2)S(C)(=O)=O)CC1 (configuration not stated) | 1 | -1.7
COc1ccc(-c2cc(C(F)(F)F)n3nc(C(=O)N4CCCCC4)cc3n2)cc1 | 0.72 | -0.33
CCC(=O)OCCCCCCOc1ccc(C(=O)O)cc1 | 2.3 | -1.3
CCOc1ncccc1C(=O)OCC(=O)c1cc(OC)c(OC)c(OC)c1 | 0.07 | 0.01
Cc1ccc(C(=O)N/C(=C\c2cn(C)c3ccccc23)C(=O)NCCCn2ccnc2)cc1 | 1.4 | 0.39
COc1cc(CNc2ccc3[nH]c(=O)[nH]c3c2)ccc1OCc1c(F)cccc1Cl | 1.1 | -1.1
Cn1c(=O)c(=O)n(C)c2cc(S(=O)(=O)CCC(=O)Nc3ccc(F)cc3)ccc21 | 0.1 | -0.01
O=C(c1ccc2ccccc2c1)N1CCCCC1 | 0.86 | 1.5
CCC(CO)NC1=C([N+](=O)[O-])C(=O)CC(C)(C)C1 (configuration not stated) | 0.38 | -0.41
O=C(NCc1cccnc1)c1ccc(CS(=O)(=O)Cc2ccc(Cl)cc2)o1 | 1.5 | -0.5
c1ccc(-c2nnc(CSc3nnc(-c4cccs4)o3)o2)cc1 | 0.03 | -1.3
O=C(NC1CCS(=O)(=O)C1)Oc1ccc(Cl)cc1 (configuration not stated) | 0.13 | 1.6
Cc1cccnc1NC(=O)COc1ccc2oc3c(c2c1)CCCC3 | 2.2 | 0.11
CCOc1ncccc1C(=O)Nc1ccc2c(C)cc(=O)oc2c1 | 0.14 | -0.96
O=C(O)COCC(=O)NCc1csc2ccc(Cl)cc12 | 0.21 | -0.58
O=C1Nc2ccccc2N(O)N1c1ccc(Cl)c(Cl)c1 | 1.1 | -1.2
O=C(COc1ccccc1[N+](=O)[O-])Nc1ccc(NC(=O)c2cc3ccccc3o2)cc1 | 1.4 | -0.02
Cc1cc(C(=O)COC(=O)c2ccc(O)cc2)c(C)n1CC1CCCO1 (configuration not stated) | 1.5 | -0.74
O=C(O)COc1cccc2ccccc12 | 0.11 | -0.24
O=C(N/N=C/c1c(O)ccc2ccccc12)Nc1ccccc1 | 0.01 | 0.14
O=S(=O)(Nc1ncccn1)c1ccc(NC(=S)Nc2ccc(Cl)cc2)cc1 | 0.7 | 1.6
CC12CCC(C(=O)Nc3ccccc3Cl)(C(Br)C1=O)C2(C)C (configuration not stated) | 0.87 | 0.61
O=C(Cn1cc2c(n1)CCCC2)NC1CCCCCC1 | 0.9 | -1.9
CCCCc1ccc(NC(=O)CC(C)C)cc1 | 7.4* | 1.3*
COc1cc(NC(=O)CN(C)S(=O)(=O)c2ccc(C)cc2)cc(OC)c1 | 0.05 | -1.4
CCOc1ccc(N(C)S(=O)(=O)c2ccc3[nH]cc(C(=O)NCC4CCCO4)c(=O)c3c2)cc1 (configuration not stated) | 0.29 | -0.69
CCc1ccccc1NC(=O)CCN1C(=O)C2C3CCC(C3)C2C1=O (configuration not stated) | 0.27 | 0
O=C(Nc1nc2ccccc2n1Cc1ccccc1)c1ccc(COc2ccccc2[N+](=O)[O-])o1 | 0.32 | 0.11
COc1cc(CNc2cccc3[nH]c(C(F)(F)F)nc23)cc(OC)c1 | 0.37 | 1.4
COc1ccc([N+](=O)[O-])cc1/C=N/Nc1nn[nH]n1 | 0.05 | 0.59
O=C1/C(=C/c2ccccn2)SC(=S)N1CCc1ccccc1 | 0.02 | -1.1
O=C(CN1C(=O)c2cccnc2Oc2ccc(Cl)cc21)N1CCCCCC1 | 0.18 | -1.3
Cn1c(CC(=O)Nc2ccccc2F)nnc1SCC(=O)NC1=NCCS1 | 0.8 | 1.8
CCOC(=O)c1sc(NC(=O)c2ccc(Br)o2)cc1C | 0.39 | -0.06
COc1ccc2[nH]c(=O)c(CN(C(=O)c3ccccn3)C3CCCCC3)cc2c1 | 2.5 | -0.06
COc1ccccc1CNC(=O)c1ccc2ccccc2n1 | 0.44 | -0.72
COc1cc(C2C(C(=O)c3ccc(C)o3)=C(O)C(=O)N2c2cc(C)on2)cc(OC)c1OC (configuration not stated) | 0.55 | -1.2
Cc1cc(C)c(NC(=O)CCCN2CCOCC2)c(C)c1 | 0.62 | 0.44
CC1(C)C/C(=N\O)c2cc3c(nc2C1)CCCC3 | 1.1 | 0
CN(Cc1ccccc1)c1ncnc(N)c1[N+](=O)[O-] | 1.5 | -0.12
CCOc1ccc(CCNC(=O)C2CCCN(c3nn4c(=O)cc(C)nc4s3)C2)cc1 (configuration not stated) | 0.15 | -1.1
c1ccc(-n2nnnc2NCCCN2CCOCC2)cc1 | 1.1 | 0.37
COc1ccc(C(=O)NCc2ccc(C(=O)NCC(OC)OC)cc2)cc1OC | 0.74 | 1.8
CCOc1cc(C)c(C(C)C)cc1S(=O)(=O)n1ccc(C)n1 | 1.7 | -0.42
O=C(Nc1ncnc2sc3c(c12)CCCCC3)c1ccco1 | 0.26 | -0.44
O=C(O)CNC(=O)CCCn1nnc2ccccc2c1=O | 0.09 | 0.21
Cc1cc(C)cc(NC(=O)Cc2ccc(NC3=NC4CS(=O)(=O)CC4S3)cc2)c1 (configuration not stated) | 0.14 | 0.88

Some of these compounds in order of the KCNQ2 pot value, descending.
SMILES | KCNQ2 pot | KCNQ2 pot baseline
COc1ccc2[nH]c(=O)c(CN(C(=O)c3ccccn3)C3CCCCC3)cc2c1 | 2.5 | -0.06
CCOc1cc(C)c(C(C)C)cc1S(=O)(=O)n1ccc(C)n1 | 1.7 | -0.42
c1ccc(-n2nnnc2NCCCN2CCOCC2)cc1 | 1.1 | 0.37
Cn1c(CC(=O)Nc2ccccc2F)nnc1SCC(=O)NC1=NCCS1 | 0.8 | 1.8
CCOc1ccc(CCNC(=O)C2CCCN(c3nn4c(=O)cc(C)nc4s3)C2)cc1 (configuration not stated) | 0.15 | -1.1
Cc1cc(C)cc(NC(=O)Cc2ccc(NC3=NC4CS(=O)(=O)CC4S3)cc2)c1 (configuration not stated) | 0.14 | 0.88
O=C(O)CNC(=O)CCCn1nnc2ccccc2c1=O | 0.09 | 0.21

Following part.
SMILES | KCNQ2 pot | KCNQ2 pot baseline
Cc1cc(C(=O)Nc2cccnc2)no1 | 0.96 | -1.3
COc1ccc(/C(O)=C2/C(=O)C(=O)N(c3ccccn3)C2c2ccc(C(C)C)cc2)cc1 (configuration not stated) | 1.1 | -0.55
COC(=O)Nc1nnc(-c2ccco2)s1 | 2 | -0.75
Cc1ccccc1-c1ccc(CN2CCN(C)C(CCO)C2)cc1 (configuration not stated) | 0.69 | -0.19
c1ccc2nc3c(cc2c1)CCCCC3 | 1.1 | 0.16
O=[N+]([O-])c1ccc(S(=O)(=O)Nc2nc(-c3ccccc3)cs2)cc1 | 0.08 | 0.01
Cc1cccc(-n2nc3c(c2NC(=O)c2c(F)cccc2F)CS(=O)(=O)C3)c1C | 0.03 | -0.28
COc1ccc(C(=O)NCCS(=O)(=O)NCc2ccco2)cc1 | 0.48 | 0.02
O=C(O)c1ccccc1NC(=S)NC(=O)c1cccc2ccccc12 | 1.4 | -0.19
Cc1cccc(-n2c(SCC(=O)NCc3ccc4c(c3)OCO4)nc3ccccc3c2=O)c1 | 0.16 | -1.4
CC1CN(C)C(C)c2c1oc1ccc(N)cc21 (configuration not stated) | 0.02 | 1.6
COC(=O)c1ccc(COc2ccc(/C=N/NC(N)=S)cc2)o1 | 0.85 | 0.04
CCC(=O)c1ccc(N2CCCCC2)c(F)c1 | 1.2 | 0.26
Cc1nc2ccccc2nc1SCC(=O)N1CCC(C)CC1 | 1.2 | -1.1
C[C@H](NS(=O)(=O)c1ccc(Cl)cc1)C(=O)OCC(=O)NC(=O)Nc1ccc2c(c1)OCCO2 | 0.46 | -2.8
Cc1ccccc1NC(=O)NC1CCCCCCC1 | 0.7 | 3.4
Fc1ccc(-c2cc(-c3ccccc3)nc(-n3cccn3)n2)cc1 | 0.14 | -0.53
COc1ccc(OCc2nnc(SCc3ccc(C(=O)O)cc3)o2)cc1 | 1.2 | 0.83
COC(=O)c1cc(S(=O)(=O)NCC2CCN(Cc3ccc(F)cc3)CC2)cn1C | 1.2 | 0.65
CC(c1ccccc1)c1nnc(NC(=O)Nc2ccccc2F)s1 (configuration not stated) | 2 | -0.19
CCN(CC(=O)NCc1ccccn1)S(=O)(=O)c1ccc(Cl)cc1 | 0.03 | -1.4
COc1ccc(NC(=O)CN(C)C(=O)C(C)Sc2ccccc2)cc1 (configuration not stated) | 0.01 | -0.82
Cc1ccc(NC(=O)CN(C)C(=O)c2cccc(S(=O)(=O)NCc3ccccc3)c2)cc1 | 0.97 | 0.33
C=CCc1ccc(OC)c(OC)c1 | 0.67 | -2.9
CC(C)(C)OC(=O)NOCC(=O)N(Cc1ccccc1)CC(O)COc1ccccc1 (configuration not stated) | 0.82 | 0.05
O=C(CSc1ccc2nnc(-c3cccnc3)n2n1)NCC1CCCO1 (configuration not stated) | 0.78 | -0.4
CC1(C)CC(=O)C2=C(C1)NC(=O)CC2c1cc2c(cc1Br)OCO2 (configuration not stated) | 0.26 | -1.8
COc1ccccc1/C=C/c1nc2ccc(OC(C)=O)cc2c(=O)o1 | 0.01 | 0.92
CCCCNC(=S)N(C)/N=C/c1ccccc1C(=O)O | 0.48 | 0.09
O=C(Nc1ccc(F)cc1)N(Cc1nnc2n1CCCCC2)c1ccccc1 | 0.65 | 1.2
CC(=O)c1ccc(NC(=O)Cn2cnc(S(=O)(=O)N3CCOCC3)c2)cc1 | 1.2 | 0.93
CCOCCCNCc1ccc(OCC(=O)N2CCOCC2)c(OC)c1 | 1.3 | 1.1
O=C1CCC(=O)N1OCCOc1ccccc1 | 0.8 | -0.5
CC1CCCC(NC(=O)CSc2nnc(N)s2)C1C (configuration not stated) | 1.4 | -1.5
COc1cccc(CN2CCN(C3CCN(c4ccccc4C)CC3)CC2CCO)c1 (configuration not stated) | 0.47 | 0.63
Cc1[nH]nc(Nc2ccc(C(C)C)cc2)c1[N+](=O)[O-] | 1.7 | -0.64
CC1(C)CC(=O)C(C(=S)Nc2ccccc2)=C(NC2CC(C)(C)NC(C)(C)C2)C1 | 1 | -2.4
O=C(NCC1CCCO1)C1CCCN(c2ncccn2)C1 (configuration not stated) | 1.2 | -0.58
CC(C)(C)c1ccc(/C=N/Nc2ccc(C(=O)O)cc2)cc1 | 2.5 | 1.1

Screening data (PubChem)
